SARS PLP yeast: inhibitors of SARS-CoV papain-like protease in yeast. S. cerevisiae expressing SARS-CoV PLpro, growth rescue; control for the full effect not named in the record. Potency, µM (titrated, usually from 32.9 µM), inactives show at the top dose activity, positive = growth rescue. 330,000 compounds, 0.19% hits. AID 485353; active means well fitted rising curve with a large enough effect; inconclusive means small, poorly fitted or top-dose-only effect; inactive means no such curve, though single readings can be large or run the other way; also: 0% is about no effect; nearly all actives have a fitted effect of over 55% in size; growth read by luminescence after 48 h
LASV entry inh: blocks Lassa virus binding to or entry into cells; Lassa virus pseudotype entry inhibition, cell reporter; control for the full effect not named in the record; Potency, µM (doses to about 37.9 µM), inactives show at the top dose activity change, negative = inhibition, most hits filed as inhibitors; 300,000 compounds, 1.2% hits; AID 540256; active means well fitted inhibition curve with a large enough effect; inconclusive means small, poorly fitted or top-dose-only effect, or effect the other way; inactive means flat fitted curve, though single readings scatter; tested in HEK293 cells; also: % is scaled to controls: 0 for no effect and ±100 for the full control effect; nearly all actives have a fitted effect of over 50% in size; luciferase read-out
NS1 inh: influenza NS1 inhibition; 270,000 compounds, 0.4% hits; Potency, µM (titrated, usually from 46.1 µM), inactives show at the top dose activity, positive = more growth; S. cerevisiae slowed by influenza A NS1, growth recovery by OD600; AID 2326; active means well fitted rising curve with a large enough effect; inconclusive means small, poorly fitted or top-dose-only effect; inactive means no such curve, though single readings can be large or run the other way; also: nearly all actives have a fitted effect of over 50% in size
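OD600 was taken as the measure of yeast growth restored by compound in an NS1-expressing S. cerevisiae strain. Cells had been washed out of glucose medium and diluted 1:100 into galactose -URA medium, pH 6.0.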
2A StopGo: lowers the luciferase signal of an FMDV 2A StopGo reporter; 410,000 compounds, 1.2% hits; AID 1159524; human cells with a luciferase reporter of 2A StopGo recoding; control for the full effect not named in the record; Potency, µM (highest dose often 57.9 µM), for inactives: top-dose signal change, negative = less light; active = well fitted falling curve with a large enough effect; inconclusive = small, poorly fitted or top-dose-only effect; inactive = no such curve, though single readings can be large or run the other way; tested in HEK293T cells; also: % is scaled to controls: 0 for no effect and ±100 for the full control effect; nearly all actives have a fitted effect of over 45% in size; luciferase light after 4 h
Cruzain noTriton: cruzain (T. cruzi) inhibition without detergent | Potency, µM, for the others: max response, negative = inhibition, actives largely listed as inhibitors | 200,000 compounds, 2.3% hits | purified cruzain, Z-FR-AMC fluorescence, no detergent | P25779;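 also: plate controls were enzyme without inhibitor for no effect and buffer without enzyme for full effect; nearly all actives have a fitted effect of over 40% in size; top concentration of the series not given in the record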
Target sequence (P25779 123-467 limits assumed): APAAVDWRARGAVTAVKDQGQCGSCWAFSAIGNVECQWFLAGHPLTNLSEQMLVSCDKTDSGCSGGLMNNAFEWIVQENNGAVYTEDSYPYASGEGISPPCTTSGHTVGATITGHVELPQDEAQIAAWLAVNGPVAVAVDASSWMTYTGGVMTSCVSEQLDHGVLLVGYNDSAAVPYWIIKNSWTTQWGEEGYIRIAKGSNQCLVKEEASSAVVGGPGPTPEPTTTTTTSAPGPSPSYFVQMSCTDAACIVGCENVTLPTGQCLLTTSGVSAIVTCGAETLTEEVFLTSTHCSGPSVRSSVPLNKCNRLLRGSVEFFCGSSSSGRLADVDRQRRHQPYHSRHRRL
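Detergent-free condition (0.00005% Triton X-100) in acetate buffer pH 5.5 with DTT. 1.5 nM enzyme and compound were pre-mixed 15 min, then 2 uM Z-FR-AMC substrate added; reaction progress from fluorescence change between first and third reads (60 s).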
Marburg entry inh: inhibitors of Marburg virus binding or cell entry | Marburg virus pseudotyped entry inhibition, cell reporter; control for the full effect not named in the record; about a third of the inactives were read at about 46 µM | Potency, µM (top dose mostly 37.8 µM), for the others: at the highest dose activity change, negative = inhibition, usual class: inhibitors | 300,000 compounds, 1.8% hits; active = well fitted inhibition curve with a large enough effect; inconclusive = small, poorly fitted or top-dose-only effect, or effect the other way; inactive = flat fitted curve, though single readings scatter; tested in HEK293 cells; about a fifth of its hits are not listed in these tables; also: % is scaled to controls: 0 for no effect and ±100 for the full control effect; luciferase read-out
RE007 growth inh: less growth of the S. pombe RE007 Vpr strain. S. pombe RE007 Vpr strain, BacTiter-Glo ATP luminescence, 24 h; control for the full effect not named in the record. AID 651644. 360,000 compounds, 0.21% hits. Potency, µM (highest dose often 92.2 µM), for inactives: at the highest dose activity change, negative = less growth; active = well fitted falling curve with a large enough effect; inconclusive = small, poorly fitted or top-dose-only effect; inactive = no such curve, though single readings can be large or run the other way;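 also: % is scaled to controls: 0 for no effect and ±100 for the full control effect; nearly all actives have a fitted effect of over 50% in size; the assay follows cell death caused by Vpr and the record does not say whether a fall means rescue or toxicity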
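Fission yeast strain RE007, carrying one chromosomally integrated HIV-1 vpr copy, was seeded at OD 0.01 in PMG+AL medium with 23 nL pinned compound. After 24 h at 30 °C and 99% humidity, viability was read by BacTiter-Glo luminescence.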
Cruzain inh Det: cruzain (T. cruzi) inhibition with detergent; P25779; purified cruzain, Z-FR-AMC fluorescence, 0.01% Triton; Potency, µM, for inactives: max response, negative = inhibition, usual class: inhibitors; 200,000 compounds, 0.43% hits; AID 1478;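 also: plate controls were neutral wells for no effect and buffer without enzyme for full effect; nearly all actives have a fitted effect of over 40% in size; top concentration of the series not given in the record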
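Purified cruzain (1.5 nM final) was preincubated with compounds for 15 min at room temperature in 100 mM sodium acetate pH 5.5, 5 mM DTT, 0.01% Triton X-100. Reaction started with 2 uM Z-FR-AMC; AMC fluorescence change over 60 s gave activity.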
* = called active by the depositor; ? = inconclusive; / = not tested or not shown; & = joins results of further samples; [ ] = remark or other dose. Unless noted, calls follow the shape of the dose curve; as a rule, active = well fitted curve in the direction sought with a large enough effect; inconclusive = small, poorly fitted or top-dose-only effect, or another doubt; inactive = no such curve, though single readings can be large; an effect the other way counts as inactive or inconclusive. Potency is read from the fitted curve at half-maximal effect.

SMILES	SARS PLP yeast	LASV entry inh	NS1 inh	2A StopGo	Cruzain noTriton	Marburg entry inh	RE007 growth inh	Cruzain inh Det
O=C(NC(CO)(CO)CO)c1coc(=O)c(Br)c1	3%	-14%	10%	-20%	-14%	?	20%	-11%
CCOC(=O)C1CCN(S(=O)(=O)c2ccc(CNC(=O)c3ccccc3)s2)CC1	0%	/	-9%	0%	/	/	-4%	/
N/C(=N\OC(=O)c1ccco1)c1ccc(Br)cc1	-15%	13%	-185%	44%[activator]	-2%	-2%	?	6.9%
O=C(NC(=S)Nc1cccc(Cl)c1N1CCCCC1)c1ccco1	-19%	?	8%	?	-8%	?	21%	-5.0%
O=C(O)C1CSC(c2cccnc2)N1 (stereo not given)	-7%	5%	-10%	-7%	-2%	0%	-6%	4.5%
COc1ccc(-n2c(COc3cccc4cccnc34)nnc2SCC(=O)O)cc1	0%	8%[46.1 µM]	1%	11%	/	-2%[46.1 µM]	-1%	/
N#Cc1ccccc1CSc1nnc2ccc3ccccc3n12	/	1%[46.1 µM]	/	26%	-4%	13%[46.1 µM]	/	-1.9%
COC(=O)c1ccccc1NC(=O)CSc1nc(N)cc(N)n1	6%	/	8%	-3%	-10%	-2%	2%	-0.5%
O=C(Oc1cccc(C(=S)N2CCOCC2)c1)c1cccc([N+](=O)[O-])c1	-4%	17%	-3%	-7%	/	6%[46.1 µM]	6%	/
CN(C)S(=O)(=O)c1cccc(C(=O)NCCCn2ccnc2)c1	0%	6%	/	0%	/	-12%[46.1 µM]	0%	/
O=C(c1ccccn1)N(Cc1ccco1)C1(C(=O)NC2CCCCC2)CCCCC1	0%[6.58 µM]	-9%	6%	10%	9%	-21%	9%	0.6%
CCOc1ccccc1OCC(=O)Nc1ccc(S(=O)(=O)Nc2ncccn2)cc1	8%	18%	-5%	/	-4%	-1%	13%	-1.6%
CC(=O)c1ccc2noc(-c3cccc(C)c3)c2c1	-1%	15%[46.1 µM]	/	-4%	/	?	-12%	/
O=C(O)C1CCC(=O)N(C2CC2)C1c1ccccc1 (stereo not given)	-1%	20%	13%	-2%	0%	30%	13%	4.5%
CCOc1cc(/C=N/O)cc(Br)c1OCC	-56%	-22%	-4%	-20%	-9%	13%	?	-6.5%
COc1cccc(CNC(=O)CSc2c3c(nc4ccc(Cl)cc24)CCCC3)c1OC	/	-28%[46.1 µM]	/	?	-9%	-21%[46.1 µM]	/	-11%
Cc1ccc2[nH]c3nc(SCC#N)nnc3c2c1	0%	?	2%	-25%	/	?	-15%	/
Cc1cccc(-c2cc(C(=O)Nc3ccncc3)c3ccccc3n2)c1	-8%	-18%[46.1 µM]	12%	-20%	/	?	-11%	/
COc1ccc(NC(=O)CSc2nnc(Cn3nnc4ccccc43)n2C)cc1	-5%	-3%	-2%	-11%	-9%	-16%	4%	-1.0%
CCCCCNCc1ccc(OCc2ccc(Cl)nc2)c(OC)c1	-2%	-10%	-3%	-6%	1%	?	-14%	1.9%
COc1ccc(S(=O)(=O)N2CCC(C(=O)NC3CCCC3)CC2)cc1C	1%	19%[46.1 µM]	-1%	-8%	/	?	-12%	/
O=C(CSc1nnc(NC(=O)c2cccc(F)c2)s1)NCc1ccco1	-3%	11%[46.1 µM]	11%	8%	/	7%[46.1 µM]	1%	/
COc1ccc(/C=N/NC(=O)c2ccc(N3CCCC3=O)cc2)cc1	0%	?	4%	0%	/	-13%[46.1 µM]	-19%	/
CCn1c(SCC(=O)Nc2ccccc2OC)nnc1-c1cnccn1	3%	-16%	3%	0%	13%	?	1%	1.1%
CCC1(c2ccccc2)NC(=O)N(CC(=O)N2CC(=O)Nc3ccccc32)C1=O (stereo not given)	0%	-15%	/	-19%	/	-4%	2%	/

(next part)
SMILES	SARS PLP yeast	LASV entry inh	NS1 inh	2A StopGo	Cruzain noTriton	Marburg entry inh	RE007 growth inh	Cruzain inh Det
O=C(Nc1cccc(-c2cn3c(n2)SCC3)c1)c1ccc2c(c1)OCO2	1%	-4%	/	-5%	/	/	14%	/
CC(=O)C1=C(O)C(=O)N(Cc2ccccc2)C1c1ccco1 (stereo not given)	-12%	-6%	1%	-11%	-21%	5%	-16%	-6.4%
O=S(=O)(c1ccccc1)c1nc(-c2ccco2)oc1N1CCCCC1	-1%	?	-5%	-6%	/	0%[46.1 µM]	10%	/
c1ccc(N2CCOCC2)c(Nc2nc3ccccc3n3cnnc23)c1	17%	/	-68%	?	?	/	10%	-10%
Clc1cc2c(cc1/C=N/Nc1nc(N3CCOCC3)nc(N3CCOCC3)n1)OCO2	-4%	1%[46.1 µM]	/	-23%	/	-18%[46.1 µM]	-11%	/
Nc1ccc2c(O)cc(S(=O)(=O)O)cc2c1	/	?	/	8%	/	?	-4%	/
O=S(=O)(NCCc1nnc2ccc(SCc3ccccc3Cl)nn12)c1ccccc1	/	-24%[46.1 µM]	/	-8%	?	/	/	-8.0%
Cc1ccc(S(=O)(=O)NC2(C(=O)O)CCCCC2)cc1	-1%	2%	-7%	13%	1%	12%	33%	5.8%
CCc1ccc(-n2nc3ccc(NC(=O)c4cc5ccccc5o4)cc3n2)cc1	/	4%[46.1 µM]	/	21%	-2%	-6%[46.1 µM]	/	-1.2%
NC(=Nc1ccc(Br)cc1)c1ccccc1	7%	/	-5%	26%	/	/	-22%	/
COc1ccc(CN=Cc2[nH]c3ccc(Br)c(Cl)c3c2O)cc1	-17%	?	-29%	4%	25µM*	?	-24%	-15%
O=C(NNS(=O)(=O)c1ccc([N+](=O)[O-])cc1)C1CCCCC1	3%	?	13%	4%	/	25%[46.1 µM]	6%	/
CC(c1ccccc1)N1C(=O)c2ccc(C(=O)Nc3ccc(Br)cc3C(=O)O)cc2C1=O (stereo not given)	0%	/	15%	-12%	/	/	3%	/
O=C(CN1CCN(c2cccc(Cl)c2)CC1)N1CCCC1	2%	17%	-2%	-13%	-21%	3%	-12%	7.7%
COc1ccc(-c2cc3nc(C)c(CCC(=O)NC4CCCCC4)c(C)n3n2)c(OC)c1	/	1%[46.1 µM]	/	-3%	5%	4%[46.1 µM]	/	-0.1%
Nn1cnnc1N/N=C/c1cc(Br)cc(Br)c1O	6%	?	-66%	-18%	-2%	?	1%	-9.4%
C=CCSc1nc2nc(C)cc(C)n2n1	21%	9%	2%	14%	-5%	1%	-6%	-2.6%
Cc1ccc2[nH]c(=O)c(CN(CC3CCCO3)C(=O)c3cccs3)cc2c1 (stereo not given)	-3%	2%[46.1 µM]	0%	12%	/	15%[46.1 µM]	7%	/
O=C1Cc2ccccc2C(=O)N1c1ccccc1	-2%	5%	21%	2%	/	0%	4%	/
COc1ccc(C2=NN(C(=O)c3ccccc3C(=O)O)C(c3ccccc3O)C2)cc1 (stereo not given)	-3%	-4%	-5%	27%	/	-4%[46.1 µM]	-10%	/
C/C(=N/NC(=O)c1ccc(Br)s1)c1ccncc1	-5%	/	-19%	52%[activator]	/	/	-11%	/
COc1ccc(O)c(C=NCC(C)N=Cc2cc(OC)ccc2O)c1 (stereo not given)	1%	19%[46.1 µM]	/	-5%	/	?	7%	/
CCOC(=O)c1cnc(Nc2ccc(OCC)cc2)nc1C	0%	?	3%	39%[activator]	0%	?	-2%	1.8%
COc1ccccc1CNC(=O)CCCn1c(=O)c2ccccc2n(Cc2ccccc2C#N)c1=O	/	11%[46.1 µM]	/	-11%	-3%	5%[46.1 µM]	/	-2.2%
Cc1ccc(S(=O)(=O)N[C@H](C(=O)N2CCC(C(=O)N[C@@H](CC(=O)O)C(=O)O)CC2)C(C)C)cc1	-2%	/	8%	-15%	/	/	-12%	/

(list continues)
SMILES	SARS PLP yeast	LASV entry inh	NS1 inh	2A StopGo	Cruzain noTriton	Marburg entry inh	RE007 growth inh	Cruzain inh Det
Cc1nn(Cc2noc(C(=O)NC3CCC(C)CC3)n2)c(C)c1Br (stereo not given)	-4%	/	-15%	-21%	/	/	6%	/
CC1(C)CC(=O)C2=C(C1)NC(Nc1nc3ccccc3o1)=NC21CCCC1	11%	3%	4%	5%	3%	?	1%	12%
Cc1ccc2c(c1)S/C(=C/c1ccc[n+](C)c1)N2CCO	-6%	-21%[46.1 µM]	/	-14%	/	?	?	/
Cc1cccc(OCC(=O)N2CCC(N3CCOCC3)CC2)c1	1%	-9%	-3%	-17%	-1%	8%&8%	5%	4.0%
CN(CCC1CCOCC1)C(=O)CC1C(=O)NCCN1C/C=C/c1ccccc1 (stereo not given)	1%	-6%[46.1 µM]	1%	-4%	/	25%[46.1 µM]	5%	/
CCOCN(C(=O)Cn1c(C)nc2ccccc21)c1c(C)cccc1CC	/	-23%[46.1 µM]	/	-14%	?	-8%[46.1 µM]	/	-3.0%
O=C(NCc1cccnc1)NC1(C(F)(F)F)Oc2ccccc2O1	-5%	-23%	-4%	-27%	-1%	?	11%	1.6%
Cc1cc(N2C(=O)Cc3ccccc3C2=O)ccc1C(C)C	-3%	-3%	9%	6%	/	?	-18%	/
O=C(O)c1cccc2c(/C=N/Nc3ccccn3)c[nH]c12	2%	/	1%	-3%	/	/	8%	/

Two entries picked at random from the list so far, as already listed:
SMILES	SARS PLP yeast	LASV entry inh	NS1 inh	2A StopGo	Cruzain noTriton	Marburg entry inh	RE007 growth inh	Cruzain inh Det
CCOc1cc(/C=N/O)cc(Br)c1OCC	-56%	-22%	-4%	-20%	-9%	13%	?	-6.5%
COc1ccc(CN=Cc2[nH]c3ccc(Br)c(Cl)c3c2O)cc1	-17%	?	-29%	4%	25µM*	?	-24%	-15%

Individual results from the list.
Result of O=C(O)c1cccc2c(/C=N/Nc3ccccn3)c[nH]c12 under RE007 growth inh: 8%
Result of Cc1cccc(OCC(=O)N2CCC(N3CCOCC3)CC2)c1 under NS1 inh: -3%
Result of Cc1cc(N2C(=O)Cc3ccccc3C2=O)ccc1C(C)C under SARS PLP yeast: -3%
Result of CC1(C)CC(=O)C2=C(C1)NC(Nc1nc3ccccc3o1)=NC21CCCC1 under NS1 inh: 4%
